# Screening data as filed in PubChem BioAssay.
# INS promoter inh = inhibitors of insulin promoter-driven GFP, primary screen, imaging, TRM-6 cells (human fetal islet line), eGFP reporter, cell count; reporter expression induced with tamoxifen; inhibition, % at 2 µM; 130,000 compounds, 0.9% hits; AID 1273, 2008;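 active = inhibition above the mean plus 3 SD, with well images judged a real hit on visual review, cut at about 60% in these data, passing the limit was not always enough; inconclusive = inhibition over the cutoff but images rejected on review; inactive = inhibition not above the cutoff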
# PKD1 kinase inh = inhibitors of human PKD1 kinase, biochemical, fluorescence polarization; Serine/threonine-protein kinase D1 (Homo sapiens), Q15139; PKD1 kinase fluorescence polarization assay; inhibition, %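 (about 10 µM by stock and volumes)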; 200,000 compounds, 0.056% hits; AID 797, 2007;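 active = inhibition of 50% or more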;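 note: controls were vehicle for no effect and a reference inhibitor for full effect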
# HSV replic up = enhancers of HSV replication in host cells, fold increase, host cell viability. HSV replication augmentation in cells. maximum fold increase. 220,000 compounds, 0.005% hits. AID 1956, 2009;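 active = peak rise of 1.5-fold or more in the series; inconclusive = self-fluorescent or not available for retest; tested in PC3 cells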;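 note: first round at 10 µM; read as green reporter fluorescence; hits show the peak of a series up to 25 µM; 1 = signal of infected wells without compound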
# RGS16-Gao HTS = modulators of RGS16 binding to Galphao, primary screen, biochemical, human proteins, multiplexed bead flow cytometry. Regulator of G-protein signaling 16 (Homo sapiens) + Guanine nucleotide-binding protein …. bead-based flow cytometry RGS16-Galphao binding, fluorescence; actives lie on both sides. binding response (% of control), % at 10 µM. 220,000 compounds, 0.38% hits. AID 1441, 2008;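 active = below 25% or above 175%, edge rows of some plates excepted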;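 note: Galphao activated by GDP with aluminum fluoride before binding; 100% = wells without compound and 0% = beads without RGS; some results beyond the cut were filed as inactive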
# Target sequence (O15492 whole entry, looked up): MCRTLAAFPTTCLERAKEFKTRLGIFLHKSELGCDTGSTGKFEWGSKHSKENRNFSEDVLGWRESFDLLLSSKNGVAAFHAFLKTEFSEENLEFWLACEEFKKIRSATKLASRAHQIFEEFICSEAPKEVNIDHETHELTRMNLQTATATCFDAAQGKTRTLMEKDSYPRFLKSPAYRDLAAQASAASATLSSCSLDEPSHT
# Target sequence (P09471 whole entry, looked up): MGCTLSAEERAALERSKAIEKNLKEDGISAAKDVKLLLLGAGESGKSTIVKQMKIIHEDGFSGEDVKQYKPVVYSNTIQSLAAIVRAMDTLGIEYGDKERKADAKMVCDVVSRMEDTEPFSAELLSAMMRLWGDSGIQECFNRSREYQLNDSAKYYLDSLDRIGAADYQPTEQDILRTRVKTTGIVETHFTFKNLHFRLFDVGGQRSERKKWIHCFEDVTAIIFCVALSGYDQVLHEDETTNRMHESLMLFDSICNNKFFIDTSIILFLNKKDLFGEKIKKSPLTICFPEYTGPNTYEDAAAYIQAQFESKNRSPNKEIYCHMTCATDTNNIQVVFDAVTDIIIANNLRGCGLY
# GALR2 ag = GALR2 receptor agonists, primary screen, cell-based; Galanin receptor type 2 (Homo sapiens), O43603; 140,000 compounds, 0.48% hits; GALR2-expressing cells, agonist activation read-out; activation, %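 (tested at 5 µM)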; AID 803, 2007;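 active = above mean plus 3 SD of all compounds, about 5% in these data, not always enough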;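 note: 0% = vehicle buffer wells and 100% = reference agonist at full effect; tested in CHO reporter cells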
# Target sequence (O43603 whole entry, looked up): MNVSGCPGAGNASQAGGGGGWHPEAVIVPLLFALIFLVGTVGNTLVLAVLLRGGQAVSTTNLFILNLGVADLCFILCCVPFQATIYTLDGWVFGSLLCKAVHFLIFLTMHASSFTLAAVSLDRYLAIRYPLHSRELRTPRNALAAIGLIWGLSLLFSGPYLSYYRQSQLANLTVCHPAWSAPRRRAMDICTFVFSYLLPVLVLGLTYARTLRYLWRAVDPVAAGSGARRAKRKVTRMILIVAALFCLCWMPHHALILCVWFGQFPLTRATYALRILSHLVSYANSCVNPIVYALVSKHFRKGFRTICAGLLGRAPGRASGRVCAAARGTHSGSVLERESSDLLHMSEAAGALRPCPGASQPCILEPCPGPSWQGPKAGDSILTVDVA
# INS promoter inh cell count = recorded beside INS promoter inh, whose call it bears; normalized cell count, %; measured here: cell count, toxicity; reference of the scale not given here;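 cells exposed to compound for 48 h; stained nuclei by imaging scaled within each plate; lower means fewer cells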
# HSV replic up primary fold = also measured in HSV replic up; calls as there; fold increase; compound at 10 µM; measured here: primary screen fold increase 10 uM; tested in PC3 cells;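 GFP signal in the first replicate; 1 = infected wells without compound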
# * hit, by the source's call; i = inactive; ? = inconclusive; · = no result given.
SMILES,INS promoter inh,INS promoter inh cell count,PKD1 kinase inh,HSV replic up,HSV replic up primary fold,RGS16-Gao HTS,GALR2 ag
Cc1ccc(NC(=O)COC(=O)CN2C(=O)c3ccccc3C2=O)cc1S(=O)(=O)N(C)C,36,84,-3,i,1.1,101,·
Cc1ccc(SCc2cc(=O)[nH]c(Nc3nc(C)c4ccccc4n3)n2)cc1,32,110,-1,i,1,100,-1.5
O=C(NCc1cn2ccccc2n1)c1ccc2c(c1)OCO2,42,70,0,i,0.92,144,1.4
Cc1ccc(Nc2nc(Cl)c(C=O)s2)cc1,·,·,·,?,·,101,·
COc1cc(C=O)c(Br)cc1OCc1ccc(C)cc1,-177,3,6,i,1.2,93,-2.3
Cc1cnc(C(=O)Oc2c(C)ccc(C)c2C)cn1,33,82,-1,i,0.96,103,·
N#Cc1c2c(c(-n3cnc4ccccc43)n3c1nc1ccccc13)CCC2,20,105,-6,i,1,107,-1.7
Cc1ccc(SCC(=O)NC(=O)NCCC(C)C)c(C)c1,-27,105,-7,i,1,98,·
Cc1nc2c(C)cccc2c2c1CCS2,·,·,·,i,0.82,99,·
CCC(=O)Nc1ccc(S(=O)(=O)N2CCOCC2)cc1,-471,60,-4,i,0.81,109,-1.5
CN(c1ccc(OCC(=O)NCc2cccnc2)cc1)S(=O)(=O)c1ccc(Cl)cc1,·,·,-10,i,1,102,·
COc1cc(/C=N/NC(=O)c2c(-c3ccccc3)noc2C)ccc1O,20,90,-1,i,1.1,107,-2.7
O=C(CSc1cccc[n+]1[O-])N1CCCCCC1,·,·,-3,i,0.88,96,·
Nc1cccc(Cl)c1N1CCOCC1,30,104,-3,i,0.82,98,-3.0
CC(C)(C)c1ccc(/C=C/C(=O)NC2CCS(=O)(=O)C2)cc1 (configuration not stated),-23,43,1,i,0.9,106,·
CC(C)c1ccccc1NC(=O)COC(=O)c1c2c(nc3ccccc13)CCN(Cc1ccccc1)C2,10,111,-3,i,1.1,96,-0.8
O=C(/C(=C(\[O-])c1ccccc1)[n+]1ccc2ccccc2c1)c1ccc(Cl)cc1,23,87,10,i,0.88,106,-1.4
O=C(Nc1ccccc1-c1nc2ccccc2s1)C1=COCCO1,4,148,-1,i,0.82,112,0.8
Cc1cc(-n2c(C)cc(C(=O)CN3C(=O)NC4(CCCC4)C3=O)c2C)no1,·,·,-1,i,0.82,107,-2.2
Cc1cccc(CS(=O)(=O)Cc2ccc(C(=O)NCCCN3CCCC3)o2)c1,-37,45,-9,i,0.88,108,-1.4
Cc1c(NC(=O)COC(=O)c2cc3c4ccccc4n(C)c3s2)c(=O)n(-c2ccccc2)n1C,33,96,-29,i,0.97,94,-1.1
C[C@@H]1C(=O)O[C@@H]2[C@H](O)C34[C@H]5C[C@@H](C(C)(C)C)C36[C@H](OC(=O)[C@@H]6O)OC4(C(=O)O5)[C@@]12O (some centres not stated),-70,127,-1,i,0.82,106,-1.6
O=C(N/N=C/c1ccccc1)c1n[nH]c2c1CCCC2,·,·,-6,i,0.72,101,·
CCC(=O)N1CCc2cc(Br)cc(S(=O)(=O)NCC3CCCN3CC)c21 (configuration not stated),-16,72,-3,i,0.81,98,-0.8
O=C(NCCCn1ccnc1)c1cc(S(=O)(=O)N2CCOCC2)c(Cl)cc1Cl,-4,117,5,i,0.94,102,-1.4
N#Cc1ccccc1NC(=O)c1ccc2c(Cl)c3c(nc2c1)CCCC3,·,·,-2,i,0.93,98,0.0
Cc1ccc2[nH]c(=O)c(CN(Cc3cccnc3)Cc3nnnn3CC3CCCO3)cc2c1 (configuration not stated),·,·,·,i,0.91,103,·
Cc1cccc(S(=O)(=O)CC(=O)Nc2nc(-c3ccccc3)cs2)c1,10,184,-2,i,0.9,239,-4.0
O=C(NC(=S)NCCc1ccccc1)c1ccccc1,·,·,-6,i,0.96,105,-1.6
O=S(=O)(c1cccc(-c2nc3ccccc3s2)c1)N1CCOCC1,48,148,-3,i,0.77,105,0.9
CCOc1ccc(N2CC(C(=O)Nc3ncccc3C)CC2=O)cc1 (configuration not stated),22,72,-4,i,0.94,103,-1.9
N/C(=N\OC(=O)CCCOc1ccccc1)c1cccc(Br)c1,40,55,-1,i,0.99,106,·
CC1(C)C(=O)CC[C@]2(C)C3C(=O)C=C4[C@H]5C[C@@](C)(C(=O)O)CC[C@]5(C)CC[C@]4(C)[C@]3(C)CC[C@@H]12 (some centres not stated),·,·,·,i,0.88,102,·
CCCCCCCCCCNC(=O)CCn1[nH]c(=O)c2ccccc2c1=O,44,103,-2,i,0.97,·,-3.3
CCc1ccc(NC(=O)Cc2c(C(=O)O)n(C)c3ccccc23)cc1,·,·,0,i,1,98,·
CC(C)N(C(=O)CSc1nnc(NC(=O)C2CCC2)s1)C(C)C,-4,113,-1,i,1,103,1.1
COc1ccc(-c2ccc(-c3nnc(-c4cc(OC)ccc4OC)o3)cc2)cc1,-12,81,-7,·,·,99,-2.4
Cc1ccc(CCNc2ccc3ccccc3c2)cn1,49,165,-3,i,0.88,99,-2.5
CCn1cc(CNC(=O)c2cc(Cl)ccc2OC)c(C)n1,58,56,-7,i,0.99,106,-0.3
CC(C(=O)NCc1cccnc1)N1C(=O)c2ccccc2C1=O (configuration not stated),-38,220,1,i,0.98,100,-4.7
COC(=O)C1=C(C)NC2=C(C(=O)CC(C)(C)C2)C1c1cccc(C)n1 (configuration not stated),10,72,-3,i,0.93,98,2.7
Cc1ccc(C(=O)Nc2cc([N+](=O)[O-])ccc2C)cc1,-7,120,-7,i,0.98,103,·
C=CCn1c(SCC(=O)Nc2cccc(C(=O)OC)c2)nnc1C(C)NC(=O)c1cccs1 (configuration not stated),-40,85,-8,i,0.94,101,-2.1
COc1cccc2c1OCC(CN1CCN(Cc3ccccc3)C(CCO)C1)=C2 (configuration not stated),·,·,-1,i,1.1,124,·
COC(=O)c1cccc(NC(=O)CCCOc2cccc(C)c2)c1,6,147,-1,i,0.94,79,-2.3
CSc1ccccc1NC(=O)Nc1ccc(F)c(Cl)c1,-28,150,-6,i,0.78,98,-3.9
Cc1ccc(S(=O)(=O)N2CCC(C(=O)N3Cc4ccccc4C3)CC2)cc1,-23,111,-7,i,0.95,105,-1.9
CCc1ccc(C(=O)COC(=O)c2n[nH]c3ccccc23)cc1,0,156,-10,i,0.92,107,·
CCC1C(=O)N(C)CCc2ccccc21 (configuration not stated),0,147,3,i,0.98,100,-1.1
Cc1nnc(NC(=O)CSc2ncc(-c3ccccc3)[nH]2)s1,·,·,·,i,0.87,101,·
C=CCN1C=C2C(=O)C(C)(OC(=O)c3ccc(OC)cc3)C(=O)C(c3ccco3)=C2C=C1CCCC (configuration not stated),·,·,·,i,0.92,88,·
CCCc1nc2oc(C(=O)OCC)c(N)c2c2c1COC(C)(C)C2,·,·,-5,i,0.93,98,-0.1
Cc1ccc(NC(=O)C(C)N2C(=O)c3ccccc3C2=O)nc1 (configuration not stated),·,·,-5,i,0.93,100,·
COC(=O)/C(=C\C(=O)c1ccccc1)Nc1cccc(C(F)(F)F)c1,·,·,-2,i,0.99,97,-2.2
N#Cc1cn(-c2ccccc2)nc1-c1ccc2c(c1)OCCO2,7,119,-1,i,1.1,102,-0.6
CNc1c([N+](=O)[O-])cnn1-c1ccc(Cl)cc1Cl,·,·,-4,i,0.94,96,0.1
O=S(=O)(c1ccc(Cl)cc1)n1c(Cc2ccccc2)nc2ccccc21,41,124,-7,i,0.88,102,-1.0
Cc1cccc(NC(=S)NCCC(C)C)c1,24,125,4,i,0.99,103,-0.7
NC(=O)CC[C@@H]1NC(=O)[C@H](CO)NC(=O)c2cc([N+](=O)[O-])cc(I)c2NCC[C@@H](C(N)=O)NC1=O,-23,99,6,i,0.88,65,-2.8
O=C1C(NS(=O)(=O)c2ccccc2)=C(N2CCN(c3ccc(F)cc3)CC2)C(=O)c2ccccc21,·,·,·,i,0.86,118,·
# The results go on:
SMILES,INS promoter inh,INS promoter inh cell count,PKD1 kinase inh,HSV replic up,HSV replic up primary fold,RGS16-Gao HTS,GALR2 ag
CCCCn1nc(C(=O)NC2=NCCS2)c2ccccc2c1=O,33,84,-14,i,0.97,98,-1.2
CC(C)c1ccc(C(O)P(=O)(OC2CCCCC2)OC2CCCCC2)cc1 (configuration not stated),·,·,·,i,1.1,106,·
O=C(COc1ccccc1F)NCc1nc2ccccc2[nH]1,0,120,-3,i,1,104,·
CCOc1ccc(/C=C2\SC(N3CCc4ccccc4C3)=NC2=O)cc1,6,91,-9,i,0.76,106,-2.0
COc1cc(OC)c(OC)cc1C=NCC1(c2ccccc2)CCCC1,·,·,7,i,1,86,-0.8
O=C(NCc1ccco1)C(c1ccccc1)N(Cc1cccnc1)C(=O)Cn1nnc2ccccc21 (configuration not stated),·,·,10,i,1,101,-0.4
O=[N+]([O-])c1cc(CSC2=NCCN2)ccc1O,·,·,·,i,0.65,98,·
COc1ccc(C(=O)NNC(=O)c2ccc(S(=O)(=O)N3CCOCC3)cc2)cc1,·,·,-8,i,0.83,101,·
CN1CCN(S(=O)(=O)c2ccc(N(C)CC(=O)Nc3ccc(F)cc3)nc2)CC1,·,·,-10,i,1,107,-0.8
Cc1nc2ccc(NC(=O)c3ccc(Cl)s3)cc2s1,·,·,-4,i,0.89,100,-4.4
CC1CCN(C(=O)CN2C(=O)C(C)(C)Oc3ccc(C(=O)NC4CCCC4)cc32)CC1,-31,54,-5,i,1,94,-0.6
COc1ccc(OC(C)C(=O)Nc2cccnc2)cc1 (configuration not stated),9,50,-6,i,0.77,101,-1.4
Cc1nc2nc(SCC(=O)O)nn2c(C)c1Cc1ccccc1Cl,43,140,9,i,1,100,·
Cc1ccc(NC(=O)CCC(=O)NNC(=O)C(c2ccccc2)c2ccccc2)c(C)c1,-38,113,-4,i,1,102,-4.1
Cc1noc(C)c1S(=O)(=O)Nc1ccccc1N1CCOCC1,·,·,·,i,1,103,·
O=C(CNC(=O)c1ccccc1)OC(C(=O)c1ccccc1)c1ccccc1 (configuration not stated),·,·,3,i,1.1,100,1.2
CCOC(=O)C1CCN(Cc2cc(C(C)C)c(O)c(C(C)C)c2)CC1,-30,67,2,i,1,100,·
COc1ccccc1/C=C1\Oc2cc(OC(=O)N3CCOCC3)ccc2C1=O,·,·,·,i,0.87,100,·
O=C(COC(=O)c1cc2c(s1)CCCC2)Nc1ccc(Cl)cn1,·,·,2,i,1.1,107,-0.3
CCOC(=O)/C(C#N)=C/c1ccc(SC)cc1,-15,105,5,i,0.99,104,·
COC(=O)c1[nH]c2cccc(OC)c2c1NC(=O)CCN1CCC(C)CC1,31,126,12,i,0.92,101,-0.7
Cc1ccccc1OCC(=O)NNC(=O)CCc1ccccc1,·,·,2,i,0.96,102,·
CN(Cc1ccccc1)S(=O)(=O)c1cccc(C(=O)O)c1,0,102,2,i,0.92,108,·
CCc1ccc(NC(=O)N(C2CCC(C)CC2)C2CCN(C(C)=O)CC2)cc1 (configuration not stated),·,·,-5,i,0.83,103,-1.9
CC(C)C(=O)Nc1cccc(-c2cnc3ccccc3n2)c1,-32,132,-4,i,0.77,97,0.2
